HSD17B inh: qHTS Assay for Inhibitors of HSD17B4, hydroxysteroid (17-beta) dehydrogenase 4; actives 7.6% (n = 75,000); 3-hydroxyacyl-CoA dehydrogenase type-2 (Homo sapiens), Q99714; Potency, µM (doses to about 57.1 µM), for inactives: at the highest dose activity change, negative = inhibition, usual class: inhibitors; recombinant HSD17B10, NADH fluorescence kinetic; many of its hits are not listed in these tables; active means well fitted inhibition curve with a large enough effect; inconclusive means small, poorly fitted or top-dose-only effect; inactive means no such curve, though single readings can be large or run the other way;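 further: the protocol describes HADH2 (HSD17B10) and not the HSD17B4 of the title; nearly all actives have a fitted effect of over 70% in size; most hits overshoot -100% by far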
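His-tagged E. coli-expressed HADH2 at 20 nM in 100 mM Tris-HCl pH 9.0 with 0.01 % Tween-20, preincubated 15 min with compound at room temperature. Reaction with 1 mM NAD+ and 90 uM beta-hydroxybutyryl coenzyme A; NADH fluorescence (360/450 nm) read kinetically over 4 min, last minus first point.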
The depositor's hits bear a star; u = inconclusive; & = joins results of further samples; [ ] = dose if it differs, or a comment. On the % scale 0 is the no-effect control and ±100 the full control effect; potency means the concentration at half of the fitted maximal effect.

SMILES	HSD17B inh
O=C(NC1CC1)c1cccc(Nc2ccc(-c3ccc4c(c3)OCCO4)nn2)c1	-18%
COc1ccc(CN2C(=O)CN=C2Nc2ccc(C)cc2C)cc1	-17%
CCOC(=O)Nc1nnc(-c2cccc(OC)c2)s1	32µM*
COc1ccc(C(C)=O)cc1COC(=O)Cn1cnc2ccccc2c1=O	-5%
Cc1ccc(N2CC(C(=O)Nc3ccccn3)CC2=O)cc1 (stereo not drawn)	10%
Cc1cc(-c2ccco2)n(CC(=O)NCc2ccco2)n1	-8%
CCC(C)NC(=O)C1CN(S(=O)(=O)c2ccccc2)CCN1S(=O)(=O)c1ccccc1 (stereo not drawn)	-4%
CC1Cc2ccccc2N1C(=O)c1ccnc(C(C)(C)C)c1 (stereo not drawn)	1%
COc1ccc(C(=O)NC(C(=O)NCc2ccccn2)C(C)C)cc1 (stereo not drawn)	8%
CO[C@]1(NC(=O)[C@H](C(=O)O)c2ccc(O)cc2)C(=O)N2C(C(=O)O)=C(CSc3nnnn3C)CO[C@H]21	-6%[25.6 µM]
Cc1cc(/C=C\c2ccc3cc(N(C)C)ccc3[n+]2C)c(C)n1-c1ccccc1	u
CCCNc1nc2c(c(=O)[nH]c(=O)n2C)n1CCCc1ccccc1	9%
COCCCN1C(=O)C(=O)/C(=C(/O)c2ccc3c(c2)OCCO3)C1c1ccc(C(=O)OC)cc1 (stereo not drawn)	-7%
O=C(NC1CCCc2ccccc21)C1CCCO1 (stereo not drawn)	0%
Cc1ccc(OCc2nn3c(-c4ccco4)nnc3s2)cc1	4%
COC(=O)/C(C)=C/CC12OC(C)(C)C3CC(C=C4C(=O)c5cc6c(c(CCC(C)(C)Cl)c5OC431)OC1(C)CCC(=C(C)C)C6C1)C2=O (stereo not drawn)	32µM*
Cc1nn(C2CCCCC2)c(N)c1-c1ccccc1	5%
O=C(CSCc1cccc(F)c1)N1CCN(c2ccccc2)CC1	10%
COC(=O)CNC(=O)[C@@]1(C)C=C[C@@H](Cc2ccccc2)N1C(C)=O	8%
O=C(Nc1ccc(F)cc1)NC1CCN(Cc2nnnn2Cc2ccco2)CC1	25µM*
COC(=O)NC(/C(C(=O)OC)=C(\C)NCc1ccccc1)c1ccccc1 (stereo not drawn)	6%[11.4 µM]
O=C(Cn1nnc(-c2ccccc2-n2cnnn2)n1)c1ccccc1	-9%
Cc1ccccc1C(=O)/C=C1\NC(=O)CS1	-4%
CC(CN(C)Cc1ccccc1)OC(=O)c1cccs1 (stereo not drawn)	-8%
CN1CCN(C(=O)NC2CCCN2S(=O)(=O)c2ccc(Cl)cc2)CC1 (stereo not drawn)	5%
New compounds follow.
SMILES	HSD17B inh
CCCn1c(-c2ccc(F)cc2)nc2c(NC(C)CCCN(CC)CC)nc(C)nc21 (stereo not drawn)	25µM*
O=c1c2ccccc2nc2sc3ccccc3n12	u
O=C(Nc1c(F)cc(F)cc1Br)c1cccnc1	4%
COc1ccc(O)c(-c2[nH]ncc2C(=O)c2ccccc2C)c1	4%
C/C(NCCN1CCOCC1)=C(\C#N)C(N)=O	10%
COC(=O)[C@@]1(Cc2ccc(OC)cc2)[C@H]2c3cc(C(=O)N(C)C)n(CCO)c3C[C@H]2CN1C(=O)c1ccccc1	3%
COc1cc2nc(C3CC3)n(NC(=O)c3ccc(Cl)cc3)c(=O)c2cc1OC	-6%
O=C1c2cccnc2C(=O)N1Cc1ccccc1	3%
CN(C)c1ccc(-c2cncnc2Nc2ccccc2)cc1	-2%
CO/N=C(\C)CCN1CCCc2nc(C)c(C)cc21	4µM*
N#CCCn1ncc2ccccc21	3%
Cc1ccc(C)c(N2CCN(C(=O)CN(C)S(=O)(=O)c3ccc4c(c3)CCC(=O)N4)CC2)c1	2%
Cc1c(C(=O)NC2CC2)oc2ccc(S(=O)(=O)N3CCCCCC3)cc12	2%
Cc1cnn(Cc2ccccc2)c1N	0%
CCCCc1n[nH]c2c1/C(=N/O)CC(c1ccccc1)C2 (stereo not drawn)	2%
CCCSCCCNC(=O)Cn1cc2c(n1)CCCCC2	8%
Cc1nn(C)cc1CNC(=O)c1cnn2c(C(F)F)cc(C3CC3)nc12	-29%
Cc1ccc(-c2nc3cccnc3o2)cc1NC(=O)COc1ccc(Cl)cc1C	32µM*
COc1ccc(CCNC(=O)CN(C)S(=O)(=O)c2cccs2)cc1OC	-1%
Cn1c(C(=O)NC2CCCCCC2)cc2c(=O)n(C)c3ccccc3c21	u
CC(=O)n1cc(C2C(=O)CCCC2=O)c2ccccc21	-6%
Cc1ccc(CNC(=O)CN2CCN(Cc3ccc(Cl)cc3)C2=O)cc1	-3%
Cc1ccccc1Cn1nnc(-c2cccc(C(=O)O)c2)n1	9%
Cc1ccc(-c2noc(CN(C(=O)CCCN3C(=O)c4ccccc4C3=O)C(C)C)n2)cc1	-3%
COc1cc(OC)cc(C(=O)N2CCN(c3ncccn3)CC2)c1	-1%

Given field by field: part of the list above
> CCCSCCCNC(=O)Cn1cc2c(n1)CCCCC2
  HSD17B inh: 8%
> Cc1c(C(=O)NC2CC2)oc2ccc(S(=O)(=O)N3CCCCCC3)cc12
  HSD17B inh: 2%

Part of the list above, with each value named.
> O=c1c2ccccc2nc2sc3ccccc3n12
  HSD17B inh: u
> O=C(Nc1c(F)cc(F)cc1Br)c1cccnc1
  HSD17B inh: 4%
> COc1ccc(O)c(-c2[nH]ncc2C(=O)c2ccccc2C)c1
  HSD17B inh: 4%
> C/C(NCCN1CCOCC1)=C(\C#N)C(N)=O
  HSD17B inh: 10%

(cont.)
SMILES	HSD17B inh
CCCC(=O)NC(c1ccco1)c1cc(Cl)c2cccnc2c1O (stereo not drawn)	0%
CCN1C(=O)C2(C(C(=O)c3ccc(C)o3)=C(O)C(=O)N2CCCN2CCOCC2)c2ccccc21 (stereo not drawn)	-8%
N[C@H](CCCP(=O)(O)O)C(=O)O	-9%&7%
O=C(c1cc(-c2ccc(F)cc2)on1)N1CCCC1	17%
CCCCc1nc2n[nH]c(N)c2c2c1CCC2	1%
COC1C[C@@H](O[C@@H]2C(C)C(=O)OC(C)C(C)C(O)C(C)C(=O)[C@@]3(CO3)CC(C)C(OC3OC(C)CC(N(C)C)C3O)C2C)OC(C)[C@@H]1O (stereo partly drawn)	-6%
CCOC(=O)N1CCN(C(=O)c2ccc(Cl)c(S(=O)(=O)N3CCOCC3)c2)CC1	10%
CN1CCN(c2ccc(NC(=O)COc3ccc(Cl)cc3Cl)cc2)CC1	8%
O=C(O)c1ccncc1.O=C(O)c1ccncc1.[NH2-].[NH2-].[Pt]	5%[11.4 µM]
CN[C@H]1[C@@H](O[C@@H]2[C@H](O[C@@H]3[C@@H](O)[C@@H](O)[C@@H](N=C(N)N)[C@@H](O)[C@@H]3N=C(N)N)O[C@H](C)[C@@]2(O)C=O)O[C@@H](CO)[C@@H](O)[C@H]1O	4%[25.6 µM]
N#Cc1ccc(C23CC4(C2)[C@H](CN(CC2CCCCC2)[C@@H]4c2ccccc2)C3c2ccccc2)cc1 (stereo partly drawn)	5%
Nc1nnc(SCC(=O)N2CCN(c3ccccc3)CC2)n1-c1ccccc1	6%
COc1cc(C2NC(=O)N(C)C3=C2C(=O)CCC3)cc(OC)c1OC (stereo not drawn)	11%
CC1=NN(C(=O)c2ccncc2)C(=O)[C@@H]1N=Nc1ccc2ccccc2c1	-5%[11.4 µM]
COc1ccc(S(=O)(=O)Cc2ccc(C(=O)N3CCN(c4ccccc4F)CC3)o2)cc1	-6%
O=S1(=O)NC(=NCc2ccco2)c2ccccc21	-1%
Cc1c(Cl)cccc1NC(=O)C[C@H]1Sc2ccccc2NC1=O	3%[11.4 µM]
COc1ccc(-c2nsc3c(N4CCN(C(=O)c5ccco5)CC4)ncnc23)cc1	-26%
CCOC(=O)N1CCC(NC(=O)CCC(=O)N2CCOc3ccccc32)CC1	5%
Cc1ccc(C)c(N2CCN(C(=O)C3CCCN(S(=O)(=O)c4cnc[nH]4)C3)CC2)c1 (stereo not drawn)	0%
CC1(C)CC(NC(=O)c2coc(=O)c(Br)c2)CC(C)(C)N1	32µM*
Cn1cnc([N+](=O)[O-])c1Sc1nc(N)nc2c1ncn2Cc1ccccc1	-6%[11.4 µM]
O=C(c1cc2ccccc2oc1=O)N1CCN(CCc2ccccc2)CC1	2%
CC(C)(C)NC(=O)CSc1nnc(-c2ccco2)n1Cc1ccco1	0%
CCc1nnc(NC=C2C(=O)OC(C)(C)OC2=O)s1	1%
The list continues.
SMILES	HSD17B inh
CC(=O)OC[C@@H]1O[C@H](CCO/N=C(\C)CCN2CCCc3nc(C)c(C)cc32)C=C[C@@H]1OC(C)=O	u
COc1cccc(CNC(=O)C2CCCN(S(=O)(=O)c3c(C)n[nH]c3C)C2)c1 (stereo not drawn)	1%
CCOc1ccccc1-n1c(SCC(N)=O)nnc1-c1ccccc1	-7%
Cc1ccc2[nH]c(=O)c(C(c3nnnn3C3CCCC3)N(Cc3cccnc3)Cc3ccco3)cc2c1 (stereo not drawn)	32µM*
Cc1occc1-c1nnc(SCC(=O)Nc2ccccc2)n1Cc1ccccc1	1%
C=CCn1c(Br)nc2c1c(=O)[nH]c(=O)n2C	14%
Cc1nn(Cc2ccccc2)c(Cl)c1C(=O)OC1CCOC1=O (stereo not drawn)	3%
CC(=O)c1sc(N2C(=O)c3oc4ccccc4c(=O)c3C2c2ccc(C)o2)nc1C (stereo not drawn)	-6%
Cc1ccc(S(=O)(=O)N[C@@H](CCc2ccccc2)CC(=O)C(C)(C)C)cc1	-1%[11.4 µM]
Cc1cc(C)n(-c2ccc3cccc(NS(C)(=O)=O)c3n2)n1	0%
N#Cc1nc(N2CCCC2)nc(N2CCCC2)n1	5%
CC(C)c1ccc(/C(C(=O)O)=C(\O)C(=O)O)cc1	2%[11.4 µM]
CCn1c(SCC(=O)NCC2CCCO2)nc2cc(S(=O)(=O)N3CCCCC3)ccc21 (stereo not drawn)	-2%
Cc1cccc(Cc2c(C)nc3c(C(=O)NCc4ccco4)cnn3c2C)c1	32µM*
O=C(CCNS(=O)(=O)c1cccc2nonc12)NCc1cccs1	1%
CCN1C(=O)CS/C1=N\c1nccs1	1%
N#CCSc1nnc(CNc2cccc(Cl)c2)o1	-2%
O=C1N2CN(C(c3ccccc3)c3ccccc3)CN=C2SC1(CO)CO	2%
C[C@@]12CCC(OC(=O)c3ccccc3)CC1CCc1ccccc12 (stereo partly drawn)	0%
COc1ccc(CCN(Cc2cccs2)S(=O)(=O)c2ccc(-n3cnnn3)cc2)cc1OC	-9%
O=c1cc(CN2CCc3ccccc32)nc2sccn12	-3%
CCCC(=O)Nc1ccccc1NC(=O)C1CCCCC1	4%
O=S(=O)(CCn1cccc1)CCn1cccc1	1%
Cn1c(=O)c(-c2cccc(C#N)c2)nc2cnc(Oc3ccccc3)nc21	-11%
CCCNS(=O)(=O)c1ccc(CCC(=O)N2CCCCC2)cc1	9%

Reformatted with bars between the fields: part of the list above
canonical_smiles | HSD17B inh
CCN1C(=O)CS/C1=N\c1nccs1 | 1%
N#CCSc1nnc(CNc2cccc(Cl)c2)o1 | -2%

(cont.)
SMILES	HSD17B inh
COCCn1c(=O)[nH]c2cc(C(=O)NCCN3CCN(c4ccc(OC)cc4)CC3)ccc2c1=O	32µM*
COCCn1nnnc1C(c1ccc2ncccc2c1)N1CCc2ccccc21 (stereo not drawn)	4%
CCOCCCNC(=O)c1ccc(CS(=O)(=O)Cc2cccc(C)c2)o1	5%
O=S(=O)(CCSc1nc2ccccc2o1)Cc1ccccc1	8%
CCCCn1c(=O)cc(N2CCOCC2)[nH]c1=O	5%
CCOC(=O)c1sc(NC(=O)c2ccc(Cl)s2)cc1C	u
COc1ccc(-c2c3c(=O)n(C)c(=O)n(C)c3cn2-c2ccccc2)cc1	-8%
CCOC(=O)c1cc2cc(F)ccc2nc1C	7%
CCCCc1cc(=O)oc2cc(C)cc(OC(C)C(=O)O)c12 (stereo not drawn)	32µM*
Cc1ccccc1C(=O)N1CCC(C(=O)Nc2cccc(F)c2)CC1	2%
O=C(c1ccncc1)N1CCC2(CCCN(Cc3ccncc3)C2)CC1	-6%
Cn1c(=O)oc2cc(S(=O)(=O)NC(Cc3ccccc3)C(=O)N3CCCCC3)ccc21 (stereo not drawn)	4%
O=C(Nc1nccs1)c1c(O)c2cccc3c2n(c1=O)CCC3	0%
COc1cccc(Cn2c(C3CC3)nc3ccc(NC(=O)c4ccco4)cc3c2=O)c1	u
COc1ccc(OC)c(-c2cc(C(=O)N3CCc4ccccc4C3)no2)c1	32µM*
Cc1[nH]nc2c1C(c1cn[nH]c1-c1ccc(F)cc1)C(C#N)=C(N)O2 (stereo not drawn)	0%
CCOC(=O)N1CCN(CC(=O)n2c(C)c(C)c3ccccc32)CC1	4%
O=C1CC(c2cccc(Br)c2)C2=C(CCCC2=O)N1 (stereo not drawn)	11%
CN(C)CCNc1oc(COc2ccc(Cl)cc2)nc1C#N	-1%
COc1cc(OC)cc(-n2nc(C(=O)NCCCN3CCOCC3)c3ccccc3c2=O)c1	-3%
CCOc1ccccc1OCC(=O)Nc1ccc(S(=O)(=O)Nc2nc(C)cc(C)n2)cc1	u
O=P(c1ccccc1)(c1ccccc1)C(O)c1ccco1 (stereo not drawn)	10µM*
N#Cc1nc(-c2ccc(OCc3ccccc3)cc2)oc1N1CCC(C(N)=O)CC1	13µM*

From PubChem

An excerpt; rates above refer to the full screens.
